Compound activity as filed in PubChem.
TRPV1 potentiator: enhances activation of the human vanilloid receptor TRPV1 | Q8NER1 | TRPV1-expressing cells, Fluo-8 calcium influx, capsaicin EC20 potentiation; host cell line not named in the record; control for the full effect not named in the record | potentiation, % at 8.33 µM | 320,000 compounds, 0.02% hits; active means potentiation above 80%; inconclusive means 30% to 80%; inactive means below 30%; further: 0% is about no effect
Target sequence (Q8NER1 whole entry, looked up): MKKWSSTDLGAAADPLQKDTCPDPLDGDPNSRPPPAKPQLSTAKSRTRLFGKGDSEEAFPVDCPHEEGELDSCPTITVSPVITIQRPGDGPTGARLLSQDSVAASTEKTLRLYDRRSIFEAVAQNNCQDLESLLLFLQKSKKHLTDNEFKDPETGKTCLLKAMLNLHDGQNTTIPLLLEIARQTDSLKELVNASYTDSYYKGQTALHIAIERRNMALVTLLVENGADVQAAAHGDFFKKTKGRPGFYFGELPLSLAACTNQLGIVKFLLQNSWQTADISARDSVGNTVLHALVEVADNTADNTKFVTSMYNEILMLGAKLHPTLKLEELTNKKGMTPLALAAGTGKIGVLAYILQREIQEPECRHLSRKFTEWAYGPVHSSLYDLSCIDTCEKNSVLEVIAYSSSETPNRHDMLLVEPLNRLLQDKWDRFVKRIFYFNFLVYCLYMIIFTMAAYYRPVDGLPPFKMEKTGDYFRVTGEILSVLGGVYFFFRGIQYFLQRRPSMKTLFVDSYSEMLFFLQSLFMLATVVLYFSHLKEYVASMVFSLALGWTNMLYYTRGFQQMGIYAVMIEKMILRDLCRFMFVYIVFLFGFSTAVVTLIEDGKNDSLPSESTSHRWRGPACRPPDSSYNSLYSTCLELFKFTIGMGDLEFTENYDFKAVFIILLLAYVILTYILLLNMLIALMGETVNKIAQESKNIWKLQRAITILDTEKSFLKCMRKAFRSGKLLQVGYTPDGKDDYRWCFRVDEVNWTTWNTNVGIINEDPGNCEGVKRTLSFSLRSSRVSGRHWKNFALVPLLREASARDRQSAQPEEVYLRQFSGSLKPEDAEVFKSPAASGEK
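Fluo-8 calcium influx in TRPV1-expressing cells, kinetic read (ex 480/em 520 nm). Compound added and read 3 min for agonist activity, followed by capsaicin at EC20 final and 2 min further read for enhancement.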
Sfp inh: blocks B. subtilis Sfp PPTase activity | Potency, µM, without a hit: max response, negative = inhibition, most hits filed as inhibitors | 310,000 compounds, 3.5% hits | Biochemical Sfp PPTase activity, qHTS | AID 1490 | Q9F4F7; active means well fitted inhibition curve with a large enough effect; inconclusive means small, poorly fitted or top-dose-only effect, or another doubt; inactive means no such curve, though single readings can be large or run the other way;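 further: the enzyme is Sfp with the accession as filed and its product quenches rhodamine fluorescence; potency means the concentration at half of the fitted maximal effect; 0% = enzyme reaction without inhibitor and -100% = no enzyme wells; top concentration of the series not given in the record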
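After 15 min at room temperature with compound, 15 nM Sfp received 5 uM rhodamine-CoA plus 12.5 uM BHQ-2-ybbR (50 mM Hepes pH 7.6, 10 mM MgCl2). Rate came from the fluorescence difference over 30 min, ex 525/em 598 nm.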
gsp agonist: gsp mutant agonism. gsp mutant cells, cAMP HTRF, 30 min; control for the full effect not named in the record. Potency, µM (series often up to 76.9 µM), for inactives: at the highest dose activation (cAMP increase), usual class: activators. 340,000 compounds, 0.13% hits; active = well fitted activation curve with a large enough effect; inconclusive = small, poorly fitted or top-dose-only effect, or another doubt; inactive = no such curve, though single readings can be large or run the other way; cell line not stated here;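 further: phosphodiesterase inhibitor Ro 20-1724 added with compounds to block cAMP breakdown; potency means the concentration at half of the fitted maximal effect; nearly all actives have a fitted effect of over 60% in size; about a fifth of the inactives were tested at one dose only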
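Cells stably selected in G418 were plated at 2000/well, grown 16-24 hr, then given compounds in DMSO with the PDE inhibitor […] (300 uM solution added) for 30 min at 37C; cAMP was read by HTRF.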
Menin-MLL FL inh: inhibitors of human menin-MLL interaction, wild-type MLL peptide. Fluorescence polarization, fluorescein-MLL peptide displacement from menin. FP activity change, % at 61.4 µM. 290,000 tested, under 10 active; inconclusive = falling polarisation curve, or a change in total fluorescence; inactive = total fluorescence flat and polarisation flat or rising; no compound was filed as active; the % refers to the polarisation; negative = inhibition;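 further: % of control where 0% means no effect; inhibitors lower the polarisation; unlabelled MLL peptide was the positive control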
TRPML1 blocker: blocks the human TRPML1 channel | Q9GZU1 | TRPML1-inducible cells, Ca2+ dye fluorescence, FDSS; hits give low values; inhibition of EC80 agonist-evoked calcium signal | activity change, negative = inhibition, % (concentration not given with the values) | 390,000 compounds, 0.02% hits | AID 624415; in the data active means activity change below about -50%; inconclusive means about -30% to -50%; inactive means above about -30%;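 further: stimulus is agonist 54-4 at its EC80 concentration; on the % scale 0 is the no-effect control and ±100 the full control effect; the text of the record puts the active cut at -80%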
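Tet-induced TRPML1-DL cells loaded with Ca8 no-wash calcium dye were read kinetically on FDSS. Compound addition was followed by EC80 agonist 54-4 (4 uM final); inhibition was read over 110 s.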
ClpP mod: qHTS Assay for Activators of ClpP; ATP-dependent Clp protease proteolytic subunit (Bacillus subtilis (strain 168)), P80244; purified B. subtilis ClpP, FRET peptide cleavage, 20 min; Potency, µM (series often up to 57.5 µM), without a hit: top-dose activity change, negative = active; 340,000 compounds, 1.9% hits; AID 651965, 2013; active = well fitted falling curve with a large enough effect; inconclusive = small, poorly fitted or top-dose-only effect; inactive = no such curve, though single readings can be large or run the other way; further: potency means the concentration at half of the fitted maximal effect; the source files actives as falling curves though it sought activators and does not explain the sign; nearly all actives have a fitted effect of over 65% in size; many hits overshoot -100%
Target sequence (P80244 whole entry, looked up): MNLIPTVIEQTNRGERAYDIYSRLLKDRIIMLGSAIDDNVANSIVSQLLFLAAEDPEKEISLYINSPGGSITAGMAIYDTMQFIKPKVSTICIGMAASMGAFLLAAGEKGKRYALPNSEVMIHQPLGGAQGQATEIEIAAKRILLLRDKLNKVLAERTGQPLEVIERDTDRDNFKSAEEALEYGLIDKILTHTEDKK
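Purified B. subtilis ClpP, 10 microg/mL final in Tris/HCl pH8 with KCl, BSA, glycerol and Tween-20, cleaved an Abz/nitrotyrosine-quenched decapeptide. Fluorescence (ex 320, em 430) was read at 0 and 20 min at room temperature. Delta was normalized to 5.8 microM ADEP and DMSO/no-enzyme controls.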
gsp antagonist: gsp mutant antagonism | gsp-mutant cells, cAMP HTRF, 30 min; control for the full effect not named in the record | Potency, µM (doses to about 76.9 µM), inactives show at the highest dose activity change, negative = inhibition, hits mostly inhibitors | 340,000 compounds, 0.4% hits | AID 624288; active = falling curve of any shape with a large fitted effect; inconclusive = falling curve, mostly with a smaller effect; inactive = flat or rising curve; cell line not stated here;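 further: intracellular cAMP measured with PDE inhibitor Ro 20-1724 present during compound exposure; potency means the concentration at half of the fitted maximal effect; on the % scale 0 is the no-effect control and ±100 the full control effect; nearly all actives have a fitted effect of over 65% in size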
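G418-selected cells were plated in DMEM/10% FBS for 16-24 h at 37C, then treated with compounds plus the PDE inhibitor […] (300 uM solution added) for 30 min at 37C. Intracellular cAMP was measured by HTRF after 30 min lysis at room temperature.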
* hit, by the source's call; ? = inconclusive; . = no result given; & = joins results of further samples; [ ] = another dose, or the depositor's remark.

Structure	ClpP mod	TRPML1 blocker	gsp antagonist	gsp agonist	Sfp inh	TRPV1 potentiator	Menin-MLL FL inh
CCOC(=O)Cc1c[nH]c2ccccc12	0.4%	8	-10%	1%	13%	-12	1.9
Cc1cccc(OCC(=O)NCC(=O)N/N=C/c2ccc(N(C)C)cc2)c1	?	14	13%	6%	10%	4	.
COc1ccc(N2CCN(CCCNC(=O)c3ccc(CS(=O)(=O)c4ccc(Cl)cc4)o3)CC2)cc1	-5.4%	6	-6%	-1%	-1%	27	.
COc1c([N+](=O)[O-])c(=O)oc2ccccc12	-2.5%	26	-15%	-16%	8%	9	6.6
COc1ccc(NS(=O)(=O)c2cc(NC(=O)COc3ccccc3F)ccc2OC)cc1	-1.9%	-2	?	14%	.	25	.
S=c1[nH]nc(-c2cc(-c3ccccc3)n[nH]2)n1/N=C/c1ccccc1	3.0%	24	-27%	-10%	-11%	7	-5.5
Cc1ccc(N2C(=O)N(CC(=O)N3CCOCC3)C(=O)C2C)cc1 (centres undefined)	-0.1%	44	4%	-6%[15.4 µM]	23%	20	-6.4
CN(C)Cc1c(O)ccc2c1O/C(=C\C=C\c1ccccc1)C2=O	1.2%	.	?	-9%	-16%	1	?
CCN(C(=O)c1sc(N)c(C#N)c1C)C1CCCCC1	0.8%	-5	-2%	26%	0%	2	3.4
CCN1CCN(c2ccc(S(=O)(=O)N3CCOCC3)cc2NC(=O)C2CCC(C(C)(C)C)CC2)CC1 (centres undefined)	-1.5%	2	1%	-25%	.	.	.
O=C1Cc2ccccc2C(c2ccc(Cl)cc2)N1 (centres undefined)	.	37	-5%	-39%[15.4 µM]	-1%	-2	1.9
CCc1nc2ccc(C(=O)Nc3ccc4c(c3)OCO4)cc2nc1CC	3.5%	-15	-16%	-1%[15.4 µM]	-11%	-8	6.6
CCN(CC)S(=O)(=O)c1cc(NC(=O)CNc2cccc(S(=O)(=O)N3CCCC3)c2)ccc1C	-4.8%	-17	-28%	4%[15.4 µM]	.	22	.
CCCN1CCC(=O)N([C@H](CO)CC(C)C)CC1	-0.6%&0.2%	9	8%	.	4%	-4	-1.0
COc1ccc(/C=C/C(=O)N2CCCc3ccccc32)cc1	1.7%	8	-14%	-5%	79µM*	-26	14
Cc1c(Br)c([N+](=O)[O-])nn1CCCC(=O)NC(C)c1ccccc1 (centres undefined)	-0.3%	18	2%	-16%	8%	10	2.0
COc1ccc(C2CC(=O)N3CN(c4ccc(C)c(Cl)c4)CSC3=C2C#N)cc1OC (centres undefined)	8.4%	19	-14%	29%	7.1µM*	?	0.9
Nc1nc(SCC(=O)N2CCOCC2)n[nH]1	.	5	12%	12%[15.4 µM]	-1%	-6	-2.3
Cc1ccc(-n2[nH]c(C)c(C=Nc3ccc(S(=O)(=O)N4CCOCC4)cc3)c2=O)c(C)c1	.	.	.	.	13%	-1	-0.1
O=C(Cc1ccccc1)c1c[nH]c(C(=O)NC2CCCC2)c1	.	4	-2%	-13%	16%	?	0.5
COc1cccc2cc(-c3csc(NC(=O)CCC(=O)NCCCN4CCC(C)CC4)n3)c(=O)oc12	.	18	7%	21%	0%	12	-0.5
CCOC(=O)c1c(NC(=O)C2c3ccccc3Oc3ccccc32)sc(C(C)=O)c1C	-0.9%	5	-4%	23%	5%	11	6.4
CCN(C(=O)c1ccc2c(=O)n3c(nc2c1)CCCCC3)c1cc(OC)ccc1OC	0.0%	8	-11%	25%	4%	-16	-4.5
COC(=O)c1ccccc1NC(=O)CSc1nc2ncccc2[nH]1	.	-4	15%	?	17%	7	-2.2
Cc1ccc(NC(=O)Nc2ccccc2)nc1	-3.9%	-8	5%	17%	.	.	.
COCCN(C(=O)COC(=O)Cc1coc2cc(C)ccc12)c1c(N)n(Cc2ccccc2)c(=O)[nH]c1=O	-3.4%	6	2%	-5%	.	7	.
CCCCOCCOC(=O)C1OC1(C)c1ccccc1 (centres undefined)	0.3%	7	.	-30%[inhibitor]	.	.	.
NC(=O)c1oc2ccccc2c1NC(=O)C1CC(=O)N(c2ccccc2)C1 (centres undefined)	1.0%	8	3%	-8%[15.4 µM]	.	-2	.
CCc1nnc(NC(=O)CCC2CCCCC2)s1	1.6%	23	9%	-1%	.	.	.
CCN(CC)Cc1c(C(=O)N/N=C/c2c(Cl)cccc2Cl)nnn1-c1nonc1N	.	8	-28%	-8%[15.4 µM]	9%	-2	.
O=C1C=CC(=O)C(CNc2ccc(C(=O)OCc3ccccc3)cc2)=C1	-1.0%	4	3%	4%	.	.	.
CC(c1ccon1)N(C)C(=O)c1ccc(OC2CCN(C(=O)C3CC3)CC2)cc1 (centres undefined)	.	0	8%	-7%[15.4 µM]	10%	-12	-5.9
O=C(O)COc1ccccc1/C=N/NC(=O)c1cc(-c2ccccc2)nc2ccccc12	.	12	-5%	17%[15.4 µM]	0%	14	-0.7
CCc1nn(CC(=O)NC2CCN(Cc3ccccc3)CC2)c(=O)c2cc3cc(F)ccc3n12	-14%	11	5%	10%	4%	4	1.9
CCCCCc1c(C)nc(N2CCN(Cc3ccc4c(c3)OCO4)CC2)[nH]c1=O	-4.7%	0	2%	0%	5%	-5	-8.4
CCCC(=O)N(c1ccc(C(=O)O)cc1)c1nc(-c2ccccc2)c(C)s1	-2.8%	15	-11%	-16%	-7%	6	-2.0
Cn1ccnc1SCC(=O)NC1(C#N)CCCCC1	.	5	9%	-5%[15.4 µM]	.	-9	.
S=C(Nc1ccccc1)N1CCCCC1	-1.0%	4	15%	-4%	-2%	-8	8.8
Cc1ccc2cc(CN(C)S(C)(=O)=O)c(=O)[nH]c2c1	.	1	15%	-9%[15.4 µM]	11%	0	0.0
CC1(C)CC(NC(=O)C2CCN(S(=O)(=O)c3ccc(F)cc3)CC2)CC(C)(C)N1	1.1%	-9	6%	-37%[inhibitor]	5%	-14	.
CCCC(=O)Nc1c2c(nn1-c1ccc(OC)cc1)CS(=O)C2 (centres undefined)	-1.5%	14	16%	14%	12%	10	-1.7
CC(=O)c1ccc(-c2cccc(C3C4C=CCCC4(C)C(=O)N3Cc3ccccc3)c2)cc1 (centres undefined)	.	-7	.	.	-29%	.	0.9
C[C@@H]1CN([C@H](C)CO)C(=O)CCCn2cc(nn2)CO[C@H]1CN(C)C(=O)Nc1ccc2c(c1)OCCO2	1.5%	2	.	-35%[inhibitor]	.	.	.
CCc1ccccc1N1C(=O)C(Cl)=C(N2CCOCC2)C1=O	0.2%	.	1%	-18%	-4%	-24	-7.3
CCOC(=O)c1ccc(-c2ccc(-c3cc(=O)oc4cc(OC)c(OC)c(OC)c34)cc2)cc1	-4.9%	-13	-1%	.	-11%	.	0.0
CCC(C)NC(=O)c1[nH]c(C)c(C(=O)OC)c1C (centres undefined)	-1.1%	10	0%	0%	-7%	-4	5.5
COc1ccc(C(=O)N2CCN(c3nc4cc(C)ccc4cc3C#N)CC2)c(OC)c1	-28%	21	?	-21%	-12%	-12	2.7
CC(=O)N1N=C(c2ccc(C)cc2)CC1c1ccco1 (centres undefined)	.	-8	-3%	-2%	5%	-1	-5.4
Cc1ccc2nc(SCC(=O)c3ccc(Cl)cc3)nc(=O)n2c1	-11%	8	10%	1%[15.4 µM]	.	6	.
O=C(c1cc(C2CC2)nn1-c1ccccc1)N1CCN(c2ccccn2)CC1	-15%	2	1%	-8%	.	-9	.
CCN(CC)S(=O)(=O)c1cccc(C(=O)NCCc2ccccc2)c1	-0.5%	-17	-16%	?	.	.	.
O=C(CN1CCOCC1)N/N=C/c1cccc2ccccc12	-2.3%	9	6%	-7%[15.4 µM]	13%	?	0.6
Cc1ccc(C)c(COC(=O)CCN=C2NS(=O)(=O)c3ccccc32)c1	2.0%	18	7%	-15%	.	-6	.
COc1cc(CCC(=O)N2CCN(c3ncccn3)CC2)cc(OC)c1OC	.	1	1%	-43%[inhibitor]	15%	-3	-5.4
O=C(Nc1ccccc1C(=O)Nc1cccnc1)c1ccccc1	.	-3	-23%	-1%[15.4 µM]	10%	-24	-3.0
CC(Oc1ccc(C#N)cc1)C(=O)N1CC=C(c2ccccc2)CC1 (centres undefined)	.	5	0%	?	.	.	.
N/C(=N\OCc1ccccc1)c1nonc1N	-2.3%	5	1%	8%	-13%	-6	-0.1
O=C(Nc1ccccn1)c1nc(-c2ccccc2)n(-c2ccccc2)n1	0.9%	-4	-6%	-30%	-13%	-7	7.6
O=C(O)C/C(=C\c1ccc(Cl)cc1)c1nc2ccccc2o1	.	4	-22%	3%[15.4 µM]	16%	13	0.3
Cc1cc(C)cc(OCC(=O)Nc2ccncc2)c1	.	12	8%	-40%	15%	-8	3.4

Next compounds.
Structure	ClpP mod	TRPML1 blocker	gsp antagonist	gsp agonist	Sfp inh	TRPV1 potentiator	Menin-MLL FL inh
O=C1OC(c2ccc(F)cc2)=C/C1=C\c1ccc([N+](=O)[O-])o1	.	.	.	.	?	-7	?
O=C(NCCCN1CCCC1=O)C(=O)NCC1OCCCN1S(=O)(=O)c1cc(F)ccc1F (centres undefined)	1.4%	3	-22%	-4%[15.4 µM]	14%	-5	.
O=C1C(C2=C(O)c3ccccc3C2=O)=Nc2ccccc21	3.2%	0	-2%	?	56µM*	1	2.3
Cc1ccc(C(=O)CSc2nc3ccccc3c(=O)n2-c2ccccc2)s1	0.8%	-1	-4%	28%	1%	-14	-1.1
CC(C)N1C(=O)C(=O)N(CC(=O)N2c3ccccc3CC2C)C1=O (centres undefined)	0.4%	2	.	-47%[inhibitor]	.	.	.
C[C@@H]1CN([C@H](C)CO)C(=O)CCCn2nncc2CO[C@H]1CN(C)S(=O)(=O)c1ccc(Oc2ccccc2)cc1	-2.9%	-21	.	5%	.	.	.
CCOc1ccc(CCNC(=O)C(C)n2nc(C)c3c(C)n(-c4ccccc4)nc3c2=O)cc1 (centres undefined)	-1.8%	14	-3%	7%	12%	4	.
COC(=O)CNC(=O)c1cc(-c2ccncc2)nc2c(C)c(Cl)ccc12	1.8%	12	-34%	0%[15.4 µM]	-28%	-32	1.4
CCn1cc(C(=O)OC)c(=O)c2ccc(C)nc21	.	-17	13%	-1%[15.4 µM]	10%	8	2.3
COc1ccc(CNC(=O)c2cc(C3CC3)nc3c2cnn3C(C)C)cc1	-20%	-9	3%	-26%	.	-13	.
